High-throughput results: PubChem, several laboratories
rRNA inh HTS – reduced GFP signal of wild-type E. coli, primary screen, bacterial rRNA inhibitor project, GFP/RFP fluorescence, OD600, single point | E. coli WT GFP vs humanized-ribosome RFP mutants, 24 h; hits give low values; DMSO median 0, no signal -100 | GFP signal change (wild-type ribosome), % (no concentration beside the values) | 1.6% of 350,000 active;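 active = significant combined selectivity score with lowered wild-type GFP, culture density cut under 30%, mutant RFP and density less affected; inactive = any of these conditions unmet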; note: one replicate is shown; some compounds called inactive have numbers as strong as hits
Bfl-1 A1 inh – caspase 3/7 activation in MEF A1-2A-BIM cells, primary screen, A1 inhibitor project, cell-based, luminescence, HTS; 0.066% of 330,000 active; Caspase-Glo 3/7 luminescence, 3 h; percent of clofoctol response, vehicle zero; caspase activation, % (no concentration beside the values);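 active = over half of replicate activation scores above 10%, or exactly half above 10 with the replicate mean above 10; inconclusive = replicate mean below 10 yet half the replicates above 10; inactive = over half of replicates below 10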;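 note: wells of about 30 µL received 50 nL stock; many hits fall short of the cut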
Beta apoptosis – inhibitors of cytokine-induced beta cell apoptosis, primary screen, luminescence. INS-1E cytokine-induced death, ATP luminescence, 48 h; percent of positive-control rescue, neutral wells zero. protection from apoptosis, % (test concentration not listed). 0.8% of 300,000 active. AID 435005, 2010;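 active = all replicates at 75% or more, or half of them and the mean; inconclusive = half reach 75% but not the mean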;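 note: 0% = cytokine-treated negative control wells and 100% = positive control rescue; higher means more ATP so stronger rescue from cytokine killing; wells of about 40 µL received 100 nL stock; the first replicate is given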
RanGTP-Imp inh – inhibitors of RanGTP-importin-beta interaction, primary screen, biochemical, FRET, CFP-Ran, YFP-importin-beta, homogeneous | Ran GTPase (GTP-bound) - importin-beta complex | cell-free CFP-Ran/YFP-importin-beta FRET ratio | inhibition, % (test concentration not listed) | 1.1% of 300,000 active | AID 2216, 2009;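 active = most replicates above 15%; inconclusive = exactly half above 15%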;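 note: 0% = DMSO wells and 100% = Ran loaded with GDP instead of GTP; wells of about 40 µL received 100 nL stock; the first replicate is given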
T cruzi repl – inhibitors of intracellular T. cruzi growth, primary screen, luminescence, NIH3T3 host cells. T. cruzi beta-gal in NIH3T3, 90 h. inhibition, % (test concentration not listed). 1.4% of 300,000 active;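 active = mean inhibition across valid replicates above about 55%, limit read from the data; inconclusive = mean below that limit but half or more replicates reach it; inactive = mean below it, under half of replicates reach it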;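 note: signal also drops with host cell toxicity which is not excluded here; 0% = plate median of DMSO wells and 100% = zero luminescence signal; higher percent means less beta-gal luminescence so fewer parasites; stock transfer was 50 nL into about 50 µL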
Vif A3G – inhibitors of Vif binding to APOBEC3G peptide, primary screen, biochemical, TR-FRET, GST-Vif 1-94, biotin-A3G peptide, dose response retest (AID 1117319); Virion infectivity factor (Human immunodeficiency virus type 1 group M subtype B (isolate …; TR-FRET GST-Vif / biotin-A3G peptide binding; higher % means a stronger effect; test concentration not given here; strong numbers were not always called active; inhibition, %; hits with a dose series show IC50 in µM; 0.57% of 260,000 active;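 active = above the screen mean plus three standard deviations and confirmed in dose response; inconclusive = results disagree or hit not tested in dose response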;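 note: Vif residues 1-94 fused to GST binding biotinylated APOBEC3G peptide 110-148; 0% = full assay without inhibitor and 100% = GST in place of GST-Vif; retest series ran down from 100 µM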
MLL AF4-AF9 inh – inhibitors of AF4 peptide binding to AF9, primary screen, biochemical, AlphaScreen, biotin-AF4 peptide, FLAG-AF9, single point; Protein AF-9 (Homo sapiens), P42568; inhibition, % at 10 µM; 0.47% of 350,000 active;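 active = every replicate reaching a set inhibition limit, whatever the replicate mean, cut at about 25% in these data; inconclusive = mean inhibition reaches that limit but some replicates miss it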;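 note: 0% = plate neutral control median and 100% = total signal loss; the record names both 10 and 1 µM as test concentration; the first replicate is given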
Target sequence (P42568 whole entry, looked up): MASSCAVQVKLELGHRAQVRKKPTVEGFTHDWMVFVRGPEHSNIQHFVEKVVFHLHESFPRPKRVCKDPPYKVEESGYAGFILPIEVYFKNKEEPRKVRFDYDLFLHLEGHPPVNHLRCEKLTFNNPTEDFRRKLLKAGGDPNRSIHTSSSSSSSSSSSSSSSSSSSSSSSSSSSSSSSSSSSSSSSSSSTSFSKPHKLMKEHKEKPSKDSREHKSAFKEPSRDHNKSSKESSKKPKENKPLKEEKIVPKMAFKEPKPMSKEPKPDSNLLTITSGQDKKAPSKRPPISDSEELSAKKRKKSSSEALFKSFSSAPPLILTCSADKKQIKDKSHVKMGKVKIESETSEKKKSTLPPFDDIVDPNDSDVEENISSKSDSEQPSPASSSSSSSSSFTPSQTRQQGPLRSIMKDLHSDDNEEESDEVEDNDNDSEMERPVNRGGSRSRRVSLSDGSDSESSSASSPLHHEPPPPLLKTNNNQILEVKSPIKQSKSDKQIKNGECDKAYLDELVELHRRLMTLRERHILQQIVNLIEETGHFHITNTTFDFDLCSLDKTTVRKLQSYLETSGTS
Calb FLC – C. albicans growth inhibition with fluconazole, primary screen, CaCi-2 strain, Alamar Blue fluorescence. 0.57% of 300,000 active. growth inhibition, % (concentration not given with the values). C. albicans CaCi-2 (fluconazole-resistant clinical isolate) + fluconazole, 48 h;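 active = most replicates above 75%; inconclusive = exactly half above 75%; inactive = most below 75%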;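 note: all wells also contain fluconazole at 8 µg/ml as a sub-toxic cotreatment; 0% = median of DMSO wells and 100% = median of geldanamycin control wells; wells of about 8 µL received 7.5 nL stock; the first replicate is given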
rRNA inh HTS OD600 – second read-out of rRNA inh HTS, no call of its own (marks repeat the call); OD600 change, %; measured here: OD600 growth;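 optical density of the mix in the first replicate; 0 = DMSO median and -100 = no signal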
rRNA inh HTS RFP – also measured in rRNA inh HTS; calls as there; RFP signal change, %; measured here: RFP humanized mutant strains;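 first replicate; 0 = DMSO median and -100 = no signal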
Starred values were filed as active, the others as inactive; u = inconclusive; x = no result given. A portion of the library. The share of hits here may be higher or lower than overall.

SMILES | rRNA inh HTS | rRNA inh HTS OD600 | rRNA inh HTS RFP | Bfl-1 A1 inh | Beta apoptosis | RanGTP-Imp inh | T cruzi repl | Vif A3G | MLL AF4-AF9 inh | Calb FLC
CC1(C)CC(=O)C=C(NCc2ccncc2)C1 | x | x | x | 0.3 | -2 | 4.9 | 0 | 2% | x | -3
Cc1ccc(NC(=O)C2C3C=CC4(O3)C2C(=O)N(CCCN2CCOCC2)C4C(=O)NC2CCCCC2)cc1Cl (centres undefined) | 6 | 4 | -1.1 | 0.9 | -2 | -3.5 | 5 | x | 2.5 | -1
NC(=O)C1CCN(C(=O)/C(=C/c2ccccc2)NC(=O)c2ccccc2)CC1 | 14 | 7 | 2.2 | -0.2 | x | 3.5 | -2 | x | -3.9 | -2
COc1ccc(Br)cc1C(=O)NC(=S)Nc1cc(-c2nc3ccccc3[nH]2)ccc1C | 12 | 22 | 14 | -2.7 | 47 | 0.9 | 47 | x | -8.9 | 3
COc1cc2nc(CN3CCOCC3)n(CC(=O)NCC(F)(F)F)c(=O)c2cc1OC | 7 | 6 | -1.0 | 1.5 | -5 | 3.3 | -1 | 10% | 1.6 | 9
CCCC1=C(C(=O)OCC)C(c2ccco2)C(C#N)=C(N)O1 (centres undefined) | 15 | 12 | -6.6 | 2.1 | -5 | -0.9 | -9 | 0% | -0.1 | 26
CCN(C[C@H]1N[C@@](C)(C(=O)OC)[C@H]2C(=O)N(C)C(=O)[C@@H]12)C(=O)Nc1ccc(C(F)(F)F)cc1 | 8 | 10 | 2.3 | -0.5 | -7 | x | x | 1% | -2.1 | x
CCN1CCN(C(CNS(=O)(=O)c2ccc(C)cc2)c2ccccc2)CC1 (centres undefined) | 2 | 9 | 1.0 | x | x | 5.8 | 18 | x | 2.6 | 27
Cc1ccc(C(=O)Oc2cccnc2)cc1[N+](=O)[O-] | 4 | 2 | -1.2 | 0.9 | -11 | 1.2 | 0 | 18% | -6.2 | -17
COc1ccc(C2(CNC(=O)/C=C\c3ccco3)CCCC2)cc1OC | x | x | x | -0.2 | -3 | 1.9 | -17 | u | x | 14
NC(N)=NS(=O)(=O)c1ccc(NC(=S)NC(=O)/C=C/c2ccccc2)cc1 | 4 | 8 | -1.1 | -0.3 | -1 | 7.0 | -16 | x | -4.4 | -3
COC(=O)[C@@]1(Cc2ccccc2)[C@@H]2C(=CC(=O)[C@H]2CC(=O)C(=O)N(C)C)CN1C(=O)c1ccccc1 | x | x | x | -0.8 | -8 | -4.1 | 23 | 22% | x | -2
Oc1ccc2ccc3[nH]cnc3c2c1 | 12 | 9 | 22 | 0.2 | -1 | 2.4 | -10 | 1% | 0.8 | x
C=CCn1c(O)c(N=NC(=O)CNC(=O)c2ccncc2)c2ccccc21 | 11 | -1 | 1.3 | 0.3 | 2 | 2.5 | -14 | x | -0.4 | 5
COCCN(C(=O)CNC(=O)c1ccco1)C(C(=O)NC1CCCCC1)c1cccc(OC)c1 (centres undefined) | x | x | x | -0.4 | -2 | 2.4 | 9 | -1% | x | 1
CC(C)CC(NC(=O)C(COCc1ccccc1)NC(=O)OC(C)(C)C)C(=O)NN (centres undefined) | 12 | 13 | -0.2 | 0.0 | -9 | -2.5 | -4 | -5% | -0.4 | 27
CCC(C)(C)NC(=O)C(c1ccc(OC)cc1)N(CCOC)C(=O)CCC(=O)Nc1nccs1 (centres undefined) | 11 | 7 | -1.6 | 0.3 | -4 | -2.0 | 9 | 4% | -0.9 | 8
C=CCn1c(SCC(=O)NC2CC2)nnc1-c1cccc(OC)c1 | 10 | 6 | 0.8 | 0.1 | -2 | -3.0 | -3 | x | -1.8 | -4
CCOC(=O)c1c(C)[nH]c(C(=O)OCC(=O)NCc2ccc(F)cc2)c1C | 7 | 11 | -2.0 | -1.0 | 4 | x | x | 16% | 9.1 | x
Cc1cc(N(CN2CCCC2=O)C(=O)c2ccc(OC(C)C)cc2)no1 | 3 | 8 | -1.7 | 1.8 | -3 | -2.2 | -9 | 10% | 1.6 | -11
O=C(NCc1cccc(C(F)(F)F)c1)C1CC(c2cccc(F)c2)=NO1 (centres undefined) | 1 | -10 | 2.7 | 0.3 | 1 | -2.8 | -13 | 2% | -5.6 | 19
O=S(=O)(Nc1ccccn1)c1cccs1 | -3 | 0 | -2.9 | -0.8 | -3 | -5.5 | -9 | x | -1.7 | 12
CCCc1ccc(C(=O)NC(=O)c2ccccc2O)cc1 | x | x | x | -11 | 0 | -6.1 | -6 | x | 1.7 | 53
Cc1cccc(-c2nc(CN3CCN(C(=O)C4CCCO4)CC3)cs2)c1 (centres undefined) | 8 | -2 | 0.2 | 0.5 | 0 | x | 5 | x | 1.2 | x
CCN(CC)S(=O)(=O)c1cc(C)ccc1SC | x | x | x | -1.1 | -2 | -2.1 | 8 | -4% | x | 32

The list continues.
SMILES | rRNA inh HTS | rRNA inh HTS OD600 | rRNA inh HTS RFP | Bfl-1 A1 inh | Beta apoptosis | RanGTP-Imp inh | T cruzi repl | Vif A3G | MLL AF4-AF9 inh | Calb FLC
CC(C)(C)c1nn2cnnc2n(/N=C/c2ccc(O)cc2)c1=O | x | x | x | -0.3 | -1 | 0.0 | -9 | 0% | x | 13
CC1CCN(C(=O)c2ccc(NS(=O)(=O)c3cccs3)cc2)CC1 | -3 | -6 | -0.6 | 0.3 | -2 | 0.6 | -8 | x | 5.7 | 4
Cc1cccc(C)c1NC(=O)C1NC(=O)CC1c1ccccc1 (centres undefined) | 7 | 15 | -1.3 | 0.5 | -3 | -0.7 | 1 | 0% | -1.3 | 0
COC(=O)c1sc(N)c(C(=O)OC)c1CSc1nnnn1C | x | x | x | 1.2 | -8 | 1.6 | 5 | -2% | x | 5
Cc1cc(=O)oc2cc(NC(=O)CCC(=O)O)ccc12 | x | x | x | 0.0 | -6 | 2.1 | -6 | -3% | x | 20
CCn1c(Cc2ccccc2)nnc1SC(C)C(=O)NC1CC1 (centres undefined) | 14 | 13 | -0.7 | 1.8 | -10 | 1.8 | -7 | -4% | -1.3 | 1
Cc1ccc(NC(=S)N(CCCN2CCOCC2)Cc2cccs2)c(C)c1 | x | x | x | 0.3 | -9 | 0.7 | 0 | x | x | -7
Cc1ccc(C(=O)O)cc1S(=O)(=O)N1CCCC1 | x | x | x | 0.8 | 0 | -0.3 | -10 | -7% | x | -6
O=C(Cc1ccccc1)N1CCC(C(=O)N2CCN(c3ccc(F)cc3)CC2)CC1 | x | x | x | 0.4 | -5 | u | 7 | 28% | x | -15
Cc1ccc(NS(=O)(=O)c2c(C(=O)N3CCCCCC3)c(C)n(C)c2C)cc1C | -2 | 2 | -0.1 | 1.3 | -7 | -2.3 | 3 | x | 3.3 | 6
Cn1c(=O)c2[nH]cnc2n(-c2ccccc2)c1=O | x | x | x | -0.8 | 0 | 5.2 | 0 | 6% | x | -9
Nc1c(C(=O)NCc2ccco2)c2nc3ccccc3nc2n1CCc1ccccc1 | -28* | -22* | -0.7* | x | x | 56* | 12 | 14% | -6.5 | 6
COc1ccc(Cc2nc3ccc(C(=O)NCC4COCCO4)cc3o2)cc1 (centres undefined) | 1 | 1 | 1.5 | 0.4 | -5 | 3.1 | 3 | x | -3.9 | 14
O=C(O)c1ncsc1-c1ccccc1 | 5 | 11 | -0.4 | 0.5 | 3 | -3.0 | -15 | -3% | 2.6 | -20
Cc1ccc(NC(=O)c2cc(=O)[nH]c3ccccc23)cc1C | -1 | 5 | -2.5 | -0.3 | x | 0.3 | 4 | x | -7.2 | -1
C=CCn1c(=S)[nH]c2cc(C(=O)Nc3ccc(OC)c(OC)c3)ccc2c1=O | -8 | -6 | -0.2 | 0.4 | -3 | 0.8 | -15 | x | 0.5 | -5
O=C(COC(=O)c1cccs1)Nc1nnc(-c2ccccc2)o1 | 7 | -11 | -0.2 | u | -2 | x | -8 | 6% | 1.5 | 3
COc1cc(/C=N/NC(=O)c2cc(O)cc(O)c2)ccc1OC(=O)c1ccccc1 | -30 | -32 | -3.3 | 0.0 | -4 | -3.0 | -2 | x | 8.6 | 0
CCOc1ccccc1C(=O)NCC(=O)Nc1ncccc1C | 13 | -9 | 1.1 | 0.2 | -5 | u | -13 | x | -0.3 | 3
COc1ccc(-n2nnnc2SCC(=O)Nc2ccc3c(c2)OCCO3)c(OC)c1 | x | x | x | 0.0 | 1 | 1.6 | 4 | 1% | x | -14
Cc1cc2oc(C(=O)Nc3ccc(S(=O)(=O)Nc4onc(C)c4C)cc3)cc(=O)c2cc1Cl | -30* | -20* | -8.7* | 1.1 | -1 | -0.6 | -11 | 12% | x | 22
CC(Sc1nnc(N)s1)C(=O)Nc1nccs1 (centres undefined) | 4 | 5 | -3.9 | -1.0 | 0 | 7.6 | -11 | x | -0.2 | 6
Cc1cccc(OCCn2nc(C(=O)O)c3ccccc3c2=O)c1 | x | x | x | 1.2 | 3 | 28 | -10 | 19% | x | -6
CCCCC1=NN(C(=O)c2ccncc2)C(O)(C(F)(F)F)C1 (centres undefined) | 14 | 5 | 6.5 | 0.9 | 4 | 6.0 | -13 | -4% | 0.6 | 10
CCN(CC)CCNCC1C(=O)O[C@@H]2C[C@@]3(C)CCC[C@H](C)C3=C[C@H]12 (some centres undefined) | 9 | 3 | -1.0 | 0.2 | -28 | u | 29 | -2% | 6.4 | -13
O=C(c1cccc(C(=O)N2CCN(c3ccccc3F)CC2)c1)N1CCN(c2ccccc2F)CC1 | x | x | x | -0.3 | -15 | -1.5 | 16 | -9% | x | -8
COC(=O)[C@H](C)NC(=O)N1CCC(Cc2ccccc2)CC1 | 4 | -4 | 0.0 | -0.4 | -3 | 1.6 | -6 | -9% | -0.7 | -4
CC(Sc1nnc(-c2ccccc2Br)n1-c1cccc(C(F)(F)F)c1)C(N)=O (centres undefined) | x | x | x | -1.1 | 3 | 1.6 | -8 | x | x | -15
CCCn1c2ccccc2c2cnn(CC(=O)O)c(=O)c21 | -11 | -14 | -8.3 | -0.2 | -7 | -3.3 | -9 | 4% | -20 | -14

2 entries picked at random from the list so far:
SMILES | rRNA inh HTS | rRNA inh HTS OD600 | rRNA inh HTS RFP | Bfl-1 A1 inh | Beta apoptosis | RanGTP-Imp inh | T cruzi repl | Vif A3G | MLL AF4-AF9 inh | Calb FLC
O=C(c1cccc(C(=O)N2CCN(c3ccccc3F)CC2)c1)N1CCN(c2ccccc2F)CC1 | x | x | x | -0.3 | -15 | -1.5 | 16 | -9% | x | -8
CC(Sc1nnc(N)s1)C(=O)Nc1nccs1 (centres undefined) | 4 | 5 | -3.9 | -1.0 | 0 | 7.6 | -11 | x | -0.2 | 6
